# 2A firefly – lowers the firefly signal of an FMDV 2A StopGo reporter | HEK cells with a luciferase reporter of 2A StopGo recoding | Potency, µM (highest dose often 57.5 µM), for the others: at the top dose signal change, negative = less light | 0.23% of 120,000 active; active = well fitted falling curve with a large enough effect; inconclusive = small, poorly fitted or top-dose-only effect; inactive = no such curve, though single readings can be large or run the other way; also: nearly all actives have a fitted effect of over 60% in size; overnight with compound
# 2A Renilla – FMDV 2A StopGo reporter, Renilla signal | AID 1745857 | 0.32% of 120,000 active | HEK cells with a luciferase reporter of 2A StopGo recoding | Potency, µM (series often up to 57.5 µM), without a hit: at the top dose signal change, negative = less light; active means well fitted falling curve with a large enough effect; inconclusive means small, poorly fitted or top-dose-only effect; inactive means no such curve, though single readings can be large or run the other way; also: nearly all actives have a fitted effect of over 55% in size; overnight with compound
# Numbers without * were called inactive; ? = inconclusive; & = joins results of further samples; [ ] = dose if it differs, or a comment. % is scaled to controls: 0 for no effect and ±100 for the full control effect; potency is read from the fitted curve at half-maximal effect.
mol	2A firefly	2A Renilla
CCCCn1c(=O)[nH]c(=O)c2c1nc(COC(=O)c1ccc(C)c(C)c1)n2CCC	?	?
CCN(C(=O)Cn1nc(Cc2cccnc2)c2ccccc2c1=O)c1cc(C)ccc1C	-19.3%	-10.4%
CCCN(Cc1ccccc1)C(=O)COc1ccc2ccc(=O)oc2c1	60.0%[activator]	21.3%
CCCCCc1ccc(N=Cc2ccc(OCC(C)CC)cc2O)cc1 (stereo not given)	23.0%	0.1%
O=C(Cc1n[nH]c(=O)c2ccccc12)NCc1ccccc1	29.4%	0.8%
Cc1cccc(-c2noc(-c3ccco3)n2)c1	0.0%	-3.5%
CCC(=O)Nc1ccc(S(=O)(=O)NCc2cccn2Cc2cccc(C)c2)cc1	-0.1%	152.2%[activator]
CCOc1ccc(-c2cn3nc(CC(C)C)sc3n2)cc1	171.8%[activator]	15.3%
CC1=C(C(=O)Nc2cccc(C(F)(F)F)c2)C2(CCCCCC2)OC1=O	-12.4%	-0.9%
COc1cc(OC)c(C(=O)N2CCC(C(=O)c3ccc4c(c3)OCCO4)CC2)cc1OC	?	?

# (more compounds)
mol	2A firefly	2A Renilla
O=C(N/N=C/c1c2ccccc2cc2ccccc12)c1cccs1	170.6%[activator]	63.4%[activator]
CCc1c(C)c2ccc(OCC(=O)c3ccc(C)cc3)cc2oc1=O	0.0%	16.1%
COc1ccc2cnn(CC(=O)Nc3ccccc3Cl)c(=O)c2c1OC	-7.0%	-7.0%
COc1ccc(-c2nc3scc(CCNS(=O)(=O)c4cc(F)ccc4OC)n3n2)cc1OC	-7.7%	257.5%[activator]
CCCCCCC1CCC(C(=O)NC(C(=O)O)C(C)C)CC1 (stereo not given)	9.4%	-9.9%
COc1cccc(CNC(=O)Cn2cc3c(n2)-c2c(oc(C(=O)N4CCOCC4)c2C)CC3)c1	4.3%	-4.0%
CCN(c1cccc(C)c1)S(=O)(=O)c1c(C)nc2sc(C)cn2c1=O	-25.6%	-4.9%
Cc1ccc(CNC(=S)NCc2ccc(F)cc2)cc1	12.7%	137.6%[activator]
Cc1ncc(-c2ccc(S(=O)(=O)N3CCN(c4ccccc4)CC3)cc2)o1	-12.3%	-15.2%
CCN(CC)S(=O)(=O)c1ccc(C(C)NCc2ccsc2)cc1 (stereo not given)	-0.8%	20.1%

# Other results
mol	2A firefly	2A Renilla
COc1ccc(-n2c(Cc3ccccc3)nnc2SCc2nc(-c3cccs3)no2)cc1	-19.1%	40.6%[activator]
CN1CCc2c(sc3c2C(=O)NC(c2ccc(OC(=O)c4ccc(Cl)cc4)cc2)N3)C1 (stereo not given)	21.8%	-8.1%
CC12CCC(C/C1=N\NC(N)=O)C2(C)C (stereo not given)	-6.9%&0.0%	-14.7%&-21.3%
CC(=O)c1c(C)[nH]c(C(=O)OC(c2ccccc2)c2ccc(Cl)cc2)c1C (stereo not given)	-0.2%	-5.1%[1.06 µM]
CCOc1ccccc1Nc1nc(-c2ccc(C)cc2)c(CC(=O)O)s1	39.7%[activator]	24.3%
COc1ccc(-c2noc(CSc3nnc(-c4ccco4)n3C3CCCCC3)n2)cc1OC	?	?
C/C(CC(C)(C)c1ccccc1)=N\NC(=O)CC#N	4.2%	2.0%
Cc1ccc2cc(C(=O)NCC3COc4ccccc4O3)c(C)nc2c1 (stereo not given)	9.3%	-24.1%
Cc1cccc(C(=O)Nc2ccccc2OCc2cc(=O)n3c(C)csc3n2)c1	-5.6%	-6.1%
COc1ccc(/C=C(\C#N)c2nc3cc(C)c(C)cc3[nH]2)cc1Br	47.1%[activator]	56.8%[activator]

# Continued:
mol	2A firefly	2A Renilla
COc1ccc(CNC(=O)c2ccc(-c3nc(CSc4ccccc4)c(C)o3)cc2)cc1	-10.8%	-6.9%
Cc1ccc(-n2nc3c(N4CCC(C(=O)NC5CCC(C)CC5)CC4)nnc(C)c3c2C)cc1 (stereo not given)	9.4%	-6.5%
COCCCNC(=O)CCCn1c(=O)c2ccccc2n(CC(=O)Nc2ccc(C)cc2Cl)c1=O	1.1%	-4.6%
CCOc1ccccc1C1Nc2ccccc2-n2cc3c(=O)n(C)c(=O)n(C)c3c21 (stereo not given)	57.2%[activator]	58.1%[activator]
O=C(Nc1cccc(S(=O)(=O)N2CCCCC2)c1)c1cccc2cccnc12	2.6%	92.5%[activator]
O=C(CSc1nnc(CNC(=O)c2c(F)cccc2Cl)o1)Nc1ccccc1F	-1.8%	-5.1%
CC(CCc1ccccc1)NC(=O)c1nccnc1N (stereo not given)	20.7%	-4.5%
COc1cccc(CNC(=O)C2(c3cccs3)CCOCC2)c1	-11.9%	-9.4%
CC(=O)Nc1cc([As](=O)(O)O)ccc1O	-8.1%	-1.2%
COc1cccc(-c2noc(-c3cccc(Br)c3)n2)c1	132.3%[activator]	4.0%

# Structures shown so far with two or more sulfur atoms:
mol	2A firefly	2A Renilla
COc1ccc(-c2nc3scc(CCNS(=O)(=O)c4cc(F)ccc4OC)n3n2)cc1OC	-7.7%	257.5%[activator]
CCN(c1cccc(C)c1)S(=O)(=O)c1c(C)nc2sc(C)cn2c1=O	-25.6%	-4.9%
CCN(CC)S(=O)(=O)c1ccc(C(C)NCc2ccsc2)cc1 (stereo not given)	-0.8%	20.1%
COc1ccc(-n2c(Cc3ccccc3)nnc2SCc2nc(-c3cccs3)no2)cc1	-19.1%	40.6%[activator]

# (list continues)
mol	2A firefly	2A Renilla
CS(=O)(=O)N1CCc2cc(C(=O)N3CCN(c4ccccc4)CC3)ccc21	19.6%	14.9%
COC(=O)/C=C/c1ccc(OCc2ccc(Br)cc2)c(OC)c1	239.7%[activator]	41.2%[activator]
Cc1ccc(N(C(=O)c2ccco2)C2C=CS(=O)(=O)C2)cc1 (stereo not given)	-7.0%	-11.4%
CCS(=O)(=O)N1CCc2cc(C(=O)CSc3nnc(C4CC4)n3Cc3ccccc3)ccc21	?	-23.9%
CCCCCNC(=O)NCCc1c[nH]c2ccccc12	0.0%	1.0%
COc1ccc(CNC(=O)c2cc3c(s2)-c2c(C)cccc2OC3)cc1	7.9%	-10.3%
COc1ccc(Cl)cc1COc1ccccc1C#N	36.9%[activator]	34.2%[activator]
CCN(CC)CC(C)OC(=O)c1cccc(F)c1 (stereo not given)	-1.0%	-5.3%
COc1ccccc1CNC(=O)c1ccc2c(c1)N(Cc1ccc(C)cc1)CCS2	1.4%	212.7%[activator]
COc1ccccc1-c1nn2c(=O)cc(CN3CCN(C(=O)/C=C/c4ccccc4)CC3)nc2s1	-2.6%	-16.3%

# The list continues:
mol	2A firefly	2A Renilla
CCc1ccc(NC(=O)C(=O)NCC(c2cccnc2)N2CCN(C)CC2)cc1 (stereo not given)	3.6%	-10.5%
O=C(COC(=O)CC1CC2CCC1C2)Nc1ccc([N+](=O)[O-])cc1C(F)(F)F (stereo not given)	48.5%[activator]	50.2%[activator]
O=C(Oc1c(Sc2ccc(Cl)cc2)c(=O)oc2ccccc12)c1ccccc1	23.6%	47.1%[activator]
CCc1ccc(CNC(=O)c2ccc3nc(C(C)C)oc3c2)cc1	31.1%	-0.4%
Cc1ccccc1C(=O)n1nc(-c2ccco2)nc1NCc1ccc(Cl)cc1	1.0%	-3.2%
COc1ccc(N2CCN(CC(O)COc3ccc(C(C)(C)C)cc3)CC2)cc1 (stereo not given)	-9.4%	-13.7%
COc1ccc(CN(C)C(=O)Cn2nc(C(=O)O)c3ccccc3c2=O)cc1	47.0%[activator]	28.1%
CSc1ccc2c(c1)N(CCC1CCCCN1C)c1ccccc1S2 (stereo not given)	-14.1%[11.5 µM]	-2.9%
CSc1ncc(C(=O)NCc2ccc(F)cc2)c(-c2ccccc2)n1	38.4%[activator]	30.3%[activator]
CCOC(=O)c1nc(Nc2ccc(C(=O)OC)cc2)c2ccccc2n1	13.7%	3.1%

# Next part.
mol	2A firefly	2A Renilla
Cc1cc(C)c(C(=O)/C=C/c2ccccc2)cc1C	41.5%[activator]	9.7%
Cc1nc2nc[nH]n2c(=O)c1CCC(=O)Nc1ccc(F)cc1	0.0%	-9.8%
CCNS(=O)(=O)c1ccc(C)c(C(=O)NCc2coc(-c3cccs3)n2)c1	-15.1%	-21.5%
CCn1cc(S(=O)(=O)Nc2ccc(F)cc2C)cn1	4.8%	78.5%[activator]
CC(C)(C)c1ccc2cc(C(=O)N3CCCCC3)[nH]c2c1	237.7%[activator]	80.1%[activator]
O=C(CSc1ncc(-c2ccc(F)cc2)o1)Nc1ccc(Cl)cc1	22.8%	-1.0%
COCCc1ccc(-c2csc(NC(=O)Cn3cnc4c3c(=O)n(C)c(=O)n4C)n2)cc1	56.1%[activator]	7.5%
CS(=O)(=O)N(CC(=O)NCCSc1ccccc1)c1cc(C(F)(F)F)ccc1Cl	-4.7%	153.0%[activator]
CCSc1nc(N)c2c(n1)NC1=C(C(=O)CC(C)(C)C1)C2c1cccs1 (stereo not given)	0.0%	0.0%
Cc1cccc(Cn2c(NCCCO)nc3c2c(=O)[nH]c(=O)n3C)c1	20.9%	7.8%

# (next part)
mol	2A firefly	2A Renilla
CC(Sc1nc(C(F)(F)F)nc2ccccc12)C(=O)Nc1ccc(N(C)C)cc1 (stereo not given)	7.0%	-1.0%
CC(NC(=O)c1ccc2c(c1)N(Cc1ccc(Cl)cc1)C(=O)c1ccccc1S2=O)c1ccccc1 (stereo not given)	7.6%	22.9%
COc1ccc(OCc2nc3c4c(C)c(C)n(CCCN(C)C)c4ncn3n2)cc1	-16.6%	-20.2%
O=C(OCc1nnc(-c2ccc(Br)cc2)o1)c1ccco1	0.0%	8.4%
CC1=C(C(=O)Nc2ccccc2)C(c2ccc[nH]2)n2ncnc2N1 (stereo not given)	7.3%	0.0%
O=c1oc(-c2ccc(F)cc2)nn1CC(O)COc1ccc(Br)cc1 (stereo not given)	1.5%	14.8%
CCCSc1nnc(-c2cc(Br)ccc2NC(C)=O)c(=O)[nH]1	11.1%	3.7%
Cn1cc(C(=O)NC2CC2)c(-c2ccc3c(c2)OCCCO3)n1	9.6%	2.1%
O=C(O)CCCc1c[nH]c2ccccc12	0.6%	0.4%
CCN1C(=O)C2(c3ccccc31)N1CC3(C)CN2CC(CC)(C1)C3=O (stereo not given)	-1.8%	-3.4%

# (further entries)
mol	2A firefly	2A Renilla
Cc1ccc(CN(c2ccc(C(=O)NC(C(C)C)C(C)C)cc2)S(C)(=O)=O)cc1	13.6%	9.4%
O=C1c2ccccc2C(=O)C1c1ccc(Br)cc1	-10.9%[11.5 µM]	7.8%
O=C(CNc1cccc(S(=O)(=O)N2CCCC2)c1)N1CCN(C(=O)c2cccs2)CC1	-1.7%	-1.0%
Cc1cccc(NC(=O)Cn2c(=O)n(-c3ccc(CC(=O)NC4CC4)cc3)c(=O)c3ccccc32)c1	-7.4%	-11.4%
Cn1c(CCCOc2ccc(Cl)cc2Cl)nnc1SCc1ccccc1Cl	-0.3%	16.1%
COc1ccc(-c2noc(-c3ccc(N4CCCC4)c([N+](=O)[O-])c3)n2)cc1	53.3%[activator]	5.5%
Cc1nc2c(c(C)nn2-c2ccccc2)c(C)c1CCC(=O)NCCc1ccccc1	28.4%	?
Cc1ccc(-n2c(=O)c3c4c(sc3n(CC(=O)c3ccc(Cl)cc3)c2=O)CCC4)cc1C	0.0%	17.0%
Cc1ccc(N2CCN(C(=O)Cc3c(C(=O)O)c(C)cn3C)CC2)c(C)c1	-19.2%	-19.6%
CC1(C)CC(C(=O)c2ccccc2)CCO1 (stereo not given)	2.5%	-16.7%

# Three entries already listed, ordered by formula weight, largest number first.
mol	2A firefly	2A Renilla
Cc1cccc(NC(=O)Cn2c(=O)n(-c3ccc(CC(=O)NC4CC4)cc3)c(=O)c3ccccc32)c1	-7.4%	-11.4%
Cc1ccc(CN(c2ccc(C(=O)NC(C(C)C)C(C)C)cc2)S(C)(=O)=O)cc1	13.6%	9.4%
O=C1c2ccccc2C(=O)C1c1ccc(Br)cc1	-10.9%[11.5 µM]	7.8%

# Further records follow.
mol	2A firefly	2A Renilla
Cc1cc(C)cc(Oc2c(C(F)(F)F)oc3cc(OCc4ccccc4)ccc3c2=O)c1	9.4%	-4.2%
O=C(Nc1nnc2n1CCS2)c1ccc(F)cc1F	58.4%[activator]	-10.0%
COc1ccc(-c2nnc(SCC(=O)Nc3cccc(F)c3)s2)cc1	79.3%[activator]	-1.7%
CC(OC(=O)c1ccc2c(c1)NC(=O)CS2)C(=O)NCc1ccccc1 (stereo not given)	24.4%	12.3%
Cc1ccc(NC(=O)c2nn(-c3ccccc3)c(=O)c3ccccc23)c(O)c1	21.1%	12.1%
CCCCCC(=O)Nc1ccc(-c2nc3cc(OC)ccc3o2)cc1	0.0%	26.8%
NC(=S)c1ccc(C(F)(F)F)cc1	-8.1%	6.1%
Clc1cccc(CSc2nnc(C3CCCN3)o2)c1 (stereo not given)	14.1%	-4.9%
O=C(c1cc2ccccc2o1)c1ccccc1F	0.0%	17.1%
CCOC(=O)COc1ccc(C)cc1C(=O)c1ccn2nc(-c3ccc(Cl)cc3)cc2n1	17.8%	7.7%

# (next part)
mol	2A firefly	2A Renilla
Cc1cc(F)ccc1NC(=O)C(C)(C)c1ccccc1	-5.2%	2.4%
O=C(Nc1cccc(Cl)c1)c1cc(-c2ccccc2)on1	32.1%[activator]	4.2%
CC(=O)c1c2ccccc2cc2ccccc12	0.0%	6.7%
CCCNC(=O)c1ccc(NC(=O)c2ccc(Cl)cc2)cc1	9.2%	-4.5%[1.06 µM]
CCCCCCCCS(=O)CCCCCCCO (stereo not given)	7.4%	-10.0%
Cc1ccc(Cl)cc1-n1ncc2c(N3CCCCCC3)ncnc21	?	?
Cc1cccc(C(=O)Nc2nnc(S(=O)(=O)N(C)Cc3ccc(Cl)cc3)s2)c1	-12.0%	-2.9%
O=C(COC(=O)C12CC3CC(CC(C3)C1)C2)Nc1ccc(F)cc1[N+](=O)[O-]	-2.0%	0.7%

# Screening data as filed in PubChem.
